# GLA inh pH 4.5 – inhibitors of human alpha-galactosidase A at pH 4.5; P06280; purified enzyme, 4-MU-alpha-Gal fluorescence, pH 4.5; activity change, negative = inhibition, % at 105 µM; 230,000 tested, under 10 active; AID 1467; inconclusive = small, poorly fitted or top-dose-only inhibition, or a rising curve; inactive = flat fitted curve, though single readings scatter; no compound was filed as active;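 also: 0% = full activity with enzyme and -100% = basal without enzyme; dose as in the result columns while the protocol names 77 µM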
# Target sequence (P06280 whole entry, looked up): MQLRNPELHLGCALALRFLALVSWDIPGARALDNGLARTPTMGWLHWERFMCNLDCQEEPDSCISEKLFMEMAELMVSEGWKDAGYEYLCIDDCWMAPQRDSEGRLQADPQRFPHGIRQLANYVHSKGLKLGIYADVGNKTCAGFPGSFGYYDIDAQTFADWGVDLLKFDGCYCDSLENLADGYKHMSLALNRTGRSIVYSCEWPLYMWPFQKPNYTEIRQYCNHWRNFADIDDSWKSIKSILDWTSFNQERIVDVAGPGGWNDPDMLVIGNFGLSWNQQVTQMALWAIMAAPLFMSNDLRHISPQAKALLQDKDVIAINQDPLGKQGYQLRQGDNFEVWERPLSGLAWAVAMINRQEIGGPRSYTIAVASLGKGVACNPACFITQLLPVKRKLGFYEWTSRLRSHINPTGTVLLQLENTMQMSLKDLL
# miR-21 FLuc – miR-21 reporter, rising signal; HeLa miR-21 FLuc reporter, luciferase, 48 h; Potency, µM (series often up to 38.3 µM), without a hit: at the highest dose reporter change, positive = more light; 340,000 tested, under 10 active; AID 2288; active = well fitted rising curve with a large enough effect; inconclusive = small, poorly fitted or top-dose-only effect; inactive = no such curve, though single readings can be large or run the other way;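 also: % of control where 0% means no effect; miR-21 action dims this reporter so a rising signal means less miR-21 action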
#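 Using DMEM plus 10% FBS, HeLa miR-21-FLuc cells are incubated with test compounds (final up to about 40uM) for 48 hours; firefly luciferase signal is then imaged following reagent-mediated lysis.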
# Rango dissoc inh – prevents RanGTP from dissociating the Rango-importin beta complex | actives 0.071% (n = 340,000) | Biochemical FRET Rango-importin beta, RanGTP-induced dissociation | O95149+P62826 | Potency, µM (series often up to 46.1 µM), for the others: at the highest dose activity change, negative = inhibition; active means falling FRET ratio curve, often poorly fitted, with flat reads before Ran was added; inconclusive means other falling curves, or compound fluorescence or quenching; inactive means flat or rising ratio curve;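 also: potency is read from the fitted curve at half-maximal effect; % of control where 0% means no effect; nearly all actives have a fitted effect of over 45% in size; -100% = wells without RanGTP and RCC1; the record marks most hits as doubtful in a second field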
#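 Compounds preincubate 5 min with complex of recombinant Rango and importin beta in PBS with 1 mM DTT. Ran (0.6 uM) loaded with 2 mM GTP plus 0.2 uM RCC1 starts dissociation; FRET is recorded 45 min later.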
# Rango complex inh – prevents formation of the Rango-importin beta complex; Q14974; Rango CFP/YFP FRET sensor + importin beta, 45 min; Potency, µM (highest dose often 92.2 µM), for inactives: at the top dose inhibition of complex formation; actives 0.031% (n = 340,000); active = rising FRET ratio curve, often small or poorly fitted; inconclusive = mostly compound fluorescence or quenching in the first reads; inactive = flat curves in all reads;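 also: potency is read from the fitted curve at half-maximal effect; 0% = DMSO wells and 100% = buffer wells lacking importin beta; nearly all actives have a fitted effect of over 15% in size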
#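 FRET biosensor (snurportin 1 IBB flanked by EYFP and cerulean), 50 nM, with compound 5 min, then 0.125 microM importin beta in PBS, 1 mM DTT, 0.02% Tween-20, 0.1% BSA. CFP/YFP ratio read after 45 min at room temperature; pre-read flags interference.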
# An asterisk follows results filed as active; ? = inconclusive; · = not tested or not shown. Not all compounds are listed; rates above refer to the full screens.
SMILES,GLA inh pH 4.5,miR-21 FLuc,Rango dissoc inh,Rango complex inh
CC1CCCCC12NC(=O)N(CC(=O)Nc1sc3c(c1C(N)=O)CCC3)C2=O (stereo unspecified),6,-9%,-21%,?
CN(CCc1ccccc1)C(=O)c1ccc(NC(=O)Cc2ccc([N+](=O)[O-])cc2)cc1,·,·,15%,-0.1%
CCOc1ccc(OCC)c(NC(=O)CSc2nnc(C3CC3)n2CC)c1,·,0%,1%,8.0%
O=C(CN1C(=O)c2ccccc2C1=O)NCc1ccc(N2CCOCC2)cc1,-1,-1%,-1%,-0.8%
CCC1(C)COC(c2ccc3c(c2)OCO3)OC1 (stereo unspecified),·,·,-4%,0.1%
O=C(CCN1C(=O)C2C3CCC(C3)C2C1=O)OCC(=O)c1ccccc1 (stereo unspecified),·,2%,-18%,1.6%
COc1cccc(CC(=O)Nc2ccc(S(=O)(=O)Nc3nccs3)cc2)c1,·,·,-19%,-4.2%
COc1cc(/C=N\NC(=O)c2ccc(-c3ccccc3)cc2)cc(OC)c1OC(C)=O,·,4%,-7%,-2.0%
c1ccc(CNc2ncnc3sc4c(c23)CCC4)nc1,5,-8%,-17%,-2.8%
O=C(NCCOc1ccccc1)C1=CC=CN2CCS(=O)(=O)N=C12,·,·,5%,-0.9%
NC(=S)c1ncc(C(F)(F)F)cc1Cl,1,5%,-12%,0.8%
COc1ccc(-n2c(=O)c3ccccc3n(CC(=O)NCC3CCCO3)c2=O)cc1 (stereo unspecified),·,0%,-6%,-1.3%
Cc1ccc(C(=O)N2CC(=O)Nc3ccccc32)o1,3,-3%,-11%,-1.6%
Cc1cccc(C(=O)O[C@H]2[C@H](C)NS(=O)(=O)[C@H]3CC4C=C[C@]23O4)c1,·,·,2%,-3.4%
COc1ccc(C(=S)N2CCCC2)cc1OC,3,-3%,2%,-1.1%
CCOC(=O)C1CCN(S(=O)(=O)c2ccc3[nH]c(=O)c(=O)[nH]c3c2)CC1,2,1%,2%,-0.5%
Cn1c(CO)nc2cc(N)ccc21,-4,-4%,3%,-3.5%
CC(C)c1ccc(NS(=O)(=O)c2ccc(N3C(=O)CCC3=O)cc2)cc1,4,1%,-3%,-0.8%
CC(C)CN1CC(=O)N2C(c3ccccc3)c3[nH]c4ccccc4c3C[C@H]2C1=O (stereo partly specified),·,0%,9%,-0.7%
N#Cc1c(C(F)(F)F)cc(-c2ccccc2)n(N)c1=O,·,0%,-21%,?
CCCc1nnc(NC(=O)CCC(=O)NCc2ccccc2)s1,·,1%,4%,0.6%
O=C(COCC(=O)N/N=C/c1ccccc1F)N/N=C/c1ccccc1F,2,-2%,7%,-2.0%
CCN(C[C@H]1N[C@@](Cc2ccccc2)(C(=O)OC)[C@H]2C(=O)N(Cc3ccccc3)C(=O)[C@@H]12)C(=O)C1CCCCC1,·,·,16%,-0.2%
CCN(CC)S(=O)(=O)N1CCC(C(=O)NCC2COc3ccccc3O2)CC1 (stereo unspecified),-2,-2%,1%,-2.2%
CN1CCC(=O)N(CCOc2ccccc2)CC1,·,-1%,-4%,-0.2%
Cc1cc(N)n(-c2nc3ccccc3s2)n1,-8,11%,9%,-2.5%
Cc1ccc(CSCc2ccc(C(=O)NCC3CCCO3)o2)cc1 (stereo unspecified),1,3%,-1%,-1.3%
CCOC(=O)C1=C(C)NC(C)=C(C(=O)OCC)C1/C=C/c1ccccc1,-8,-10%,-11%,-9.7%
NC(=O)C1(NC(=O)[C@@H]2CC3(CC(c4cccc(NC(=O)c5cc([N+](=O)[O-])cc([N+](=O)[O-])c5)c4)=NO3)CN2C(=O)c2ccccc2)CC1 (stereo partly specified),-8,3%,10%,-0.8%
Cc1ccc(NC(=O)COC(=O)c2cc(=O)c3ccccc3o2)cc1F,·,·,-7%,1.1%
COc1ccc(NC2CCCN(C(=O)C3(C)CCCCC3)C2)cc1 (stereo unspecified),·,-1%,0%,-1.2%
Cc1nn(C)cc1CN1CCC(CO)(CCOc2ccccc2)CC1,10,-4%,-20%,0.9%
COc1ccc(Cc2nn3c(-c4ccccc4Br)nnc3s2)cc1,-3,-14%,0%,1.9%
CC(Sc1nnc(C2CC2)n1C1CC1)C(=O)Nc1cccc(S(=O)(=O)N2CCOCC2)c1 (stereo unspecified),·,·,-5%,-3.5%
CN(C)N1C(=O)CC(N2CCCCC2)C1=O (stereo unspecified),-11,4%,-13%,3.3%
C/C(=N/NC(=O)c1cccs1)c1ccc(NC(=O)COc2ccc(Cl)cc2Cl)cc1,-3,-43%,9%,-3.4%
O=C(Nc1ccc(N2CCN(Cc3ccccc3Cl)CC2)cc1)c1cccnc1,-25,-9%,2%,0.0%
Cc1cc(NC(=O)C2CC(c3cccc(Br)c3)=NO2)no1 (stereo unspecified),-2,0%,1%,-0.3%
NC(=O)c1ccsc1NC(=O)COC(=O)c1ccc([N+](=O)[O-])o1,·,·,19%,4.8%
CCOC(=O)C1=NN(c2ccccc2)C(c2ccccc2)CC1=O (stereo unspecified),-18,0%,1%,-0.7%

# Structural class, the compounds so far with an aryl methoxy group (6)
SMILES,GLA inh pH 4.5,miR-21 FLuc,Rango dissoc inh,Rango complex inh
COc1cccc(CC(=O)Nc2ccc(S(=O)(=O)Nc3nccs3)cc2)c1,·,·,-19%,-4.2%
COc1cc(/C=N\NC(=O)c2ccc(-c3ccccc3)cc2)cc(OC)c1OC(C)=O,·,4%,-7%,-2.0%
COc1ccc(-n2c(=O)c3ccccc3n(CC(=O)NCC3CCCO3)c2=O)cc1 (stereo unspecified),·,0%,-6%,-1.3%
COc1ccc(C(=S)N2CCCC2)cc1OC,3,-3%,2%,-1.1%
COc1ccc(NC2CCCN(C(=O)C3(C)CCCCC3)C2)cc1 (stereo unspecified),·,-1%,0%,-1.2%
COc1ccc(Cc2nn3c(-c4ccccc4Br)nnc3s2)cc1,-3,-14%,0%,1.9%

# Following part:
SMILES,GLA inh pH 4.5,miR-21 FLuc,Rango dissoc inh,Rango complex inh
COc1ccc(-c2nnc(SCC3CCCO3)n2C)cc1 (stereo unspecified),6,-26%,-6%,-7.0%
CCCc1nc2oc3c(NCCOCCO)ncnc3c2c2c1COC(C)(C)C2,-5,-3%,1%,8.5%
CN1C(=O)C(C)(C)N(C(=O)c2cccc([N+](=O)[O-])c2)c2ccccc21,·,1%,2%,?
CCc1ccc(C(=O)Nc2nc(C)cs2)s1,·,10%,1%,0.2%
C=CCn1c(-c2cccc(OC)c2)n[nH]c1=S,-2,0%,1%,1.5%
O=C(COC(=O)CNS(=O)(=O)c1cccc(F)c1)NCCc1ccccc1,·,·,18%,4.4%
CC(C)C(NS(=O)(=O)c1cccs1)C(=O)N1CCc2ccccc2C1 (stereo unspecified),1,1%,?,2.6%
COc1ccc2oc(C(=O)N3CCN(S(=O)(=O)c4cccc([N+](=O)[O-])c4)CC3)c(C)c2c1,·,5%,0%,5.1%
CC(=O)CCc1ccc2oc(C(=O)O)c(C)c2c1,-3,1%,2%,3.5%
O=C(NC1CCCCCC1)c1cccs1,0,-31%,13%,-0.3%
Cc1[nH]n(-c2ccccc2)c(=O)c1C=NCCc1ccccc1,5,-32%,0%,2.2%
O=C(NCCC1=CCCCC1)C1CCN(S(=O)(=O)c2ccccc2)CC1,5,0%,-3%,3.0%
COc1ccc(-c2nn(CCC#N)cc2/C=N/O)cc1,-2,-2%,0%,-5.0%
CC(NC(=O)CCNC(=O)N1CCn2c1nc1ccccc12)c1ccccc1 (stereo unspecified),·,0%,26%,6.8%
CCN1CCN(CCCNC(=O)C2c3ccccc3C(=O)N(C)C2c2ccc(OC)cc2)CC1 (stereo unspecified),5,-2%,-10%,0.0%
CSc1ccccc1NC(=O)CN(C)CC(=O)Nc1ccc(S(=O)(=O)N2CCCC2)cc1,·,·,-13%,9.9%
Cc1ccc(CNC(=O)c2cc(=O)c3ccc(C)cc3o2)cc1,·,-4%,12%,2.3%
CC(C)Cn1c(N2CCN(C(=O)/C=C/c3ccccc3)CC2)nc2ccccc21,0,6%,-10%,-1.5%
CC(C)(C)n1ncc2c(=O)n(Cc3ccc(Cl)cc3Cl)cnc21,-9,-9%,-2%,1.6%
Cn1c(N)c(C(=O)COC(=O)C2CCC(C(C)(C)C)CC2)c(=O)n(C)c1=O (stereo unspecified),-8,12%,?,2.0%
O=C(NCCc1ccccc1)c1ccc(NC(=O)C2CCC2)cc1,·,·,12%,0.2%
CC(=O)Nc1sc(C)c(C)c1C(=O)OCCOc1ccccc1,·,-52%,4%,0.2%
O=C(COC(=O)c1cccc(S(=O)(=O)N2CCc3ccccc3C2)c1)NCc1ccco1,-3,-6%,1%,-2.1%
NC(=O)[C@H]1CC2(CC(c3cccc(NC(=O)COc4ccc(Cl)cc4)c3)=NO2)CN1C(=O)[C@H]1CCC(=O)N1 (stereo partly specified),2,-1%,-1%,2.2%
Cc1nn(-c2ccccc2)c(C)c1NC(=O)COc1ccc(Cl)cc1Cl,10,23%,7%,1.7%
CC1CCCC(C)N1C(=O)COC(=O)CNC(=O)C12CC3CC(CC(C3)C1)C2 (stereo unspecified),·,·,-1%,-4.8%
O=C(Nc1cccc(C(=O)O)c1)/C(=C\c1ccco1)NC(=O)c1ccc(Br)o1,·,-3%,-19%,?
O=C(Nc1ccc2c(c1)oc1ccc(S(=O)(=O)N3CCCC3)cc12)C1CC1,-5,9%,19%,6.0%
CC(=O)Nc1ccc(C(=O)COC(=O)C2CCCCC2)c(F)c1,·,·,-5%,?
COC(=O)CSc1nc2ccccc2c(=O)n1C,-6,-8%,0%,-3.2%

# The last 2 compounds of the part above are carried over, then new ones follow:
SMILES,GLA inh pH 4.5,miR-21 FLuc,Rango dissoc inh,Rango complex inh
CC(=O)Nc1ccc(C(=O)COC(=O)C2CCCCC2)c(F)c1,·,·,-5%,?
COC(=O)CSc1nc2ccccc2c(=O)n1C,-6,-8%,0%,-3.2%
COc1cc(C#N)ccc1OCC(=O)Nc1ccc(C)c(S(=O)(=O)N2CCOCC2)c1,-1,-5%,17%,0.5%
O=C(N/N=C/c1ccco1)c1ccc(NC(=O)c2ccccc2Cl)cc1,4,-1%,5%,0.4%
CN(C)S(=O)(=O)c1ccc(NC(=O)COC(=O)c2ccccn2)cc1,11,-1%,1%,0.6%
C[C@@H](C(=O)Nc1nc2ccc(F)cc2s1)N1C(=O)C2CC=CCC2C1=O (stereo partly specified),11,-37%,2%,0.4%
COc1ccccc1-n1ccnc1SCC(=O)NC1CCCC1,-2,-2%,12%,0.0%
CSCCC(NC(=O)c1ccccc1)C(=O)OCC(=O)Nc1ccc(C)c(Cl)c1 (stereo unspecified),-10,2%,-1%,-1.5%
Cc1sc2ncn(CCn3cnc4sc(C)c(C)c4c3=O)c(=O)c2c1C,-6,1%,0%,0.0%
COc1ccc(S(=O)(=O)N2CCOC2CNC(=O)C(=O)NCc2ccc(F)cc2)cc1OC (stereo unspecified),·,4%,-4%,?
COc1ccccc1NC(=S)NCCc1ccc(Cl)cc1,9,-4%,9%,-0.4%
CC(=O)N1CCc2cc(S(=O)(=O)CCC(=O)NCc3ccc(F)cc3)ccc21,·,2%,1%,2.4%
O=C(NCC1CCCO1)c1ccccc1NS(=O)(=O)c1ccc(F)cc1 (stereo unspecified),·,·,1%,-0.8%

# Screening results (PubChem)
